VDR inhibitor: vitamin D3 receptor (human) inhibition; P11473; VDR-SRC2-3 peptide fluorescence polarization, 2 h; Potency, µM, without a hit: max response, negative = inhibition, hits mostly inhibitors; 400,000 compounds, 0.93% hits; AID 504847; active means well fitted inhibition curve with a large enough effect; inconclusive means small, poorly fitted or top-dose-only effect, or another doubt; inactive means no such curve, though single readings can be large or run the other way; further: series mostly up to about 120 µM
Target sequence (P11473 whole entry, looked up): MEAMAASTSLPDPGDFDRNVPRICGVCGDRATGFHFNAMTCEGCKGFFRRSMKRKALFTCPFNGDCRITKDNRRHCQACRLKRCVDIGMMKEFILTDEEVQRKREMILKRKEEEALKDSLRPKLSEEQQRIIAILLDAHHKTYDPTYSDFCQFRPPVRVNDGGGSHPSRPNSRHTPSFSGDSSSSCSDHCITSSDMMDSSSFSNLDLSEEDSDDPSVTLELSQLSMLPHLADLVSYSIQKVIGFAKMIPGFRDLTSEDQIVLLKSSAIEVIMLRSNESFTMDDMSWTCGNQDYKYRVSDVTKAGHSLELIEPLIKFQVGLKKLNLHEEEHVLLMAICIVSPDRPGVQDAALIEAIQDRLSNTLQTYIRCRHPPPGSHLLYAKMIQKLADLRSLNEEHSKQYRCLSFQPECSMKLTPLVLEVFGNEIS
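Fluorescence polarization assay measuring small-molecule disruption of VDR binding to the coregulator peptide SRC2-3. Compounds were pin-transferred (23 nl) into the reagent mix and incubated 2 h at room temperature before reading.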
Active calls of the source: *; ? = inconclusive; & = joins results of further samples. On the % scale 0 is the no-effect control and ±100 the full control effect; potency means the concentration at half of the fitted maximal effect. The list is partial (hit frequency here may not be typical).

SMILES | VDR inhibitor
CC12CCC(=O)N1C(C(=O)NNC(=O)c1ccccc1Cl)CS2 (centres undefined) | 18%
COc1ccc(CCNC2CC(=O)N(CCc3ccc(OC)c(OC)c3)C2=O)cc1OC (centres undefined) | 2%
CN(Cc1ccc(C(C)(C)C)cc1)C(=O)Cc1ccc(S(=O)(=O)N2CCOCC2)s1 | 1%
COc1ccc(N2C(=O)CC(Sc3nc(C)c4c(n3)CCCC4)C2=O)cc1 (centres undefined) | -8%
CN(C)c1nc(-c2cccc(NS(C)(=O)=O)c2)nc2ccccc12 | -6%
COc1cccc(C2N=C(c3ccccc3C)NO2)c1OC (centres undefined) | -7%
CC(NC(=O)c1ccc(S(=O)(=O)C(F)F)cc1)c1ccccc1 (centres undefined) | -21%
Cc1ccc(NC(=O)Cc2ccccc2F)cc1S(=O)(=O)N1CCCCCC1 | -14%
CCCCN1C(Nc2ccccc2)=NC[C@@H]1CC(C)C | -12%
O=c1[nH]c2ccccc2nc1/C=C/c1ccc(O)cc1 | 6%
CCN(CC)S(=O)(=O)c1cc(C(=O)Nc2cccnc2)ccc1Cl | -8%
Cc1cccc(C)c1NC(=O)CSC(=O)c1sc2ccccc2c1Cl | 7%

Single entries from above.
VDR inhibitor, CCN(CC)S(=O)(=O)c1cc(C(=O)Nc2cccnc2)ccc1Cl reads -8%
VDR inhibitor, O=c1[nH]c2ccccc2nc1/C=C/c1ccc(O)cc1 reads 6%
VDR inhibitor, CC(NC(=O)c1ccc(S(=O)(=O)C(F)F)cc1)c1ccccc1 (centres undefined) reads -21%

Reformatted in CSV form: entries from further up.
Compound,VDR inhibitor
O=c1[nH]c2ccccc2nc1/C=C/c1ccc(O)cc1,6%
CCN(CC)S(=O)(=O)c1cc(C(=O)Nc2cccnc2)ccc1Cl,-8%

Going on with the list:
SMILES | VDR inhibitor
COc1ccc(S(=O)(=O)Nc2cccc(/C=C/C(=O)O)c2)cc1 | -11%
COc1ccc2nc(SCC(=O)N3CCN(c4ccc(F)cc4)CC3)c(C#N)cc2c1 | -8%
CC(=O)Nc1cccc(C(=O)OCC(=O)NNC(=O)c2cccs2)c1 | -8%
COC(=O)Nc1ccc(S(=O)(=O)N2CCC(Cc3ccccc3)CC2)cc1 | -1%
CN1C(=O)c2ccccc2Sc2ccc(NC(=O)c3ccc(C(F)(F)F)cc3)cc21 | 7%
COc1cccc(-c2nc(-c3ccccn3)no2)c1 | 7%
O=C(OC[C@@H]1O[C@@](O)(COC(=O)c2cccnc2)[C@H](OC(=O)c2cccnc2)[C@H]1OC(=O)c1cccnc1)c1cccnc1 | 1%
O=C(Nc1ccc(-n2cccn2)cc1)C1CCCCN1Cc1cccc2c1OCO2 (centres undefined) | -11%
COc1ccc(C(C(=O)NC2CCCCC2)N2CCC3(CC2)OCCO3)cc1 (centres undefined) | 4%
COC(=O)c1sc(S(=O)(=O)N2CCC(C)CC2)c(C(=O)OC)c1C | -23%
CC(C)C(NC(=O)c1ccccc1)C(=O)NCCc1ccccc1 (centres undefined) | -9%
O=C(NCCNC(=O)c1ccc(Cl)cc1Cl)c1cnccn1 | -20%
CCOc1ccccc1N/C(=C(/C(Cl)=C(Cl)Cl)[N+](=O)[O-])n1cncn1 | ?
Nc1cccc(-c2cn3cc(C(F)(F)F)cc(Cl)c3n2)c1 | 0%
Nc1nc(SCC(=O)Nc2ccccc2)[nH]c(=O)c1-c1ccccc1 | -8%
COc1ccc(-c2csc3nc(C(C)(C)C)oc(=O)c23)cc1OC | 6%
CCOc1ccc(NC(=O)CN(C)C(=O)c2cc(-c3ccncc3)nc3ccccc23)cc1OCC | 1%
COc1ccccc1-c1noc(CCCC(=O)Nc2cccc(C(F)(F)F)c2)n1 | 5%
COc1ccc(N2C(=O)C(CC(=O)Nc3ccc(F)cc3)N(CCC3=CCCCC3)C2=O)cc1 (centres undefined) | -9%
C/C(=N\OC(=O)c1c(-c2ccccc2Cl)noc1C)c1nccs1 | -2%
CCCOc1ccc2c3c(c(=O)oc2c1OCCC)CCC3 | -3%
CN(C)C1=NC[C@H](Cc2ccccc2)N1CCc1ccc(F)cc1 | 1%
CCCNCC(=O)Nc1cccc(S(=O)(=O)NC2=NCCCCC2)c1 | -17%
O=C1CC(Cc2ccccc2)C(=O)N1Cc1ccco1 (centres undefined) | -10%

Random excerpt: 6 compounds from above, in no set order.
SMILES | VDR inhibitor
CCOc1ccc(NC(=O)CN(C)C(=O)c2cc(-c3ccncc3)nc3ccccc23)cc1OCC | 1%
CN(C)C1=NC[C@H](Cc2ccccc2)N1CCc1ccc(F)cc1 | 1%
CCOc1ccccc1N/C(=C(/C(Cl)=C(Cl)Cl)[N+](=O)[O-])n1cncn1 | ?
COc1ccc(-c2csc3nc(C(C)(C)C)oc(=O)c23)cc1OC | 6%
O=C1CC(Cc2ccccc2)C(=O)N1Cc1ccco1 (centres undefined) | -10%
COc1ccccc1-c1noc(CCCC(=O)Nc2cccc(C(F)(F)F)c2)n1 | 5%

New compounds follow:
SMILES | VDR inhibitor
CC(C)(C)NC(=O)NC(=O)C[n+]1ccc(Cc2ccc([N+](=O)[O-])cc2)cc1 | ?
Cc1ccc(C)c(N2CCN(c3c(CN4CCCC4)c(=O)oc4ccccc34)CC2)c1 | -9%
Cc1ccc(S(C)(=O)=NC(=O)c2cc(C)on2)cc1 (centres undefined) | -11%
COc1cc(C(=O)Nc2ccc(S(=O)(=O)N3CCCCC3)cc2)ccc1OCC(=O)N1CCOCC1 | -11%
C[C@@H]1C(=O)N(c2ccccc2)[C@@H]1c1ccncc1 | -6%
CC(=O)N1CCN(S(=O)(=O)c2cccc(C(=O)NC3CCCc4ccccc43)c2)CC1 (centres undefined) | 1%
CCCCn1c(N)c(N(CC(C)C)C(=O)C2=NN(c3ccccc3)C(=O)CC2)c(=O)[nH]c1=O | 4%
CCOc1ncnc2c1sc1nc(C)cc(C)c12 | -14%
Cc1cc(C)nc(/N=C(\N)Nc2ccccc2-c2ccccc2)n1 | -1%
O=C(CC(c1ccccc1)c1ccccc1O)NCc1ccccc1 (centres undefined) | 7%
O=C(C1COc2ccccc2O1)N1CCN(Cc2ccc3c(c2)OCO3)CC1 (centres undefined) | 1%
CCOc1ccc(Oc2nc(NCC(C)C)nc(N3CCOCC3)n2)nn1 | 6%
CC(=O)NC(Cc1c[nH]c2ccccc12)C(=O)OCC(=O)N1CCCCCC1 (centres undefined) | -15%
O=C(COc1ccccc1)NCC(=O)Nc1cccc2ccccc12 | -13%
COc1ccc(NS(=O)(=O)c2ccc(-n3cnnn3)cc2)cc1OC | -4%
CSc1ccccc1NC(=O)CN(C)C(=O)c1ccc(-n2cccn2)cc1 | -3%
CCCCNC(=O)c1ccc(CS(=O)(=O)c2ccccc2OC)o1 | -7%
CN(C(=O)CSc1nc2ccccc2n1C)C1CCS(=O)(=O)C1 (centres undefined) | -18%
CCC(=O)OCC(=O)Nc1cc([N+](=O)[O-])ccc1Cl | -12%
CCC(Nc1ccc(-c2nc(-c3cccnc3)no2)cc1[N+](=O)[O-])c1ccccc1 (centres undefined) | 5%
CCOc1ccc(-n2c(C)cc(C(=O)NS(=O)(=O)c3ccc(C)cc3)c2C)cc1 | 8%
O=C(COC(=O)Cc1ccsc1)Nc1ccc(Cl)c(S(=O)(=O)N2CCOCC2)c1 | 11%
O=C(O)C1CC(=O)N(c2ccc(F)cc2)C1 (centres undefined) | ?
CC1(C)CC(=O)C/C(=N\NC(=S)NCc2ccccc2)C1 | -18%
CC(=O)C1CCC2C3CCC4=CC(=O)CCC4(C)C3(F)C(O)CC12C (centres undefined) | -5%
COc1ccc(OCC(=O)NCC(c2ccc(OC)cc2)N2CCCCC2)cc1 (centres undefined) | 9%&0%
CCCNC(=S)N1CCC(NC(=O)c2cccc(C)c2)CC1 | -7%
COc1ccccc1CNC(=O)C1CCCN(S(=O)(=O)c2ccc3c(c2)CC(C)N3C(C)=O)C1 (centres undefined) | -12%
CC1C(=NO)C(C)C(c2ccc(N(C)C)cc2)NC1c1ccc(N(C)C)cc1 (centres undefined) | -7%
CCOC(=O)CCCNC(=O)CCNC(=O)c1ccc(OCC)cc1 | 6%
O=C(Nc1cccc(-n2cccn2)c1)C1CCCN(Cc2ccc(C#CCCO)cc2)C1 (centres undefined) | 8%
Cc1noc(C)c1COc1cccc(C(=O)NCc2ccccc2Cl)c1 | 3%
CCOc1ccc(OCC(O)CNC2CCN(Cc3ccccc3)CC2)cc1 (centres undefined) | -2%
COc1cccc(C(=O)OCC(=O)NCCc2ccccc2)c1OC | 0%
CCOc1ccc(Br)cc1C(=S)N1CCCC1 | -19%
COc1ccc2c(=O)cc(-c3ccccc3F)oc2c1 | -17%
CCC(=O)Nc1cc(C(F)(F)F)ccc1N1CCCC1 | -9%
COc1ccc(-n2cc(-c3ccccc3)c3c(=O)[nH]cnc32)cc1 | -4%
Cc1ccc2nc(Cl)c(/C=C/C(=O)c3ccco3)cc2c1 | 18µM*
C[C@H]1C=CC(=O)C[C@H]1c1c(F)cccc1Cl | -7%
Cc1ccc(Cl)cc1N1CCN(S(=O)(=O)c2ccc3c(c2)oc(=O)n3C)CC1 | -1%
O=C1[C@H](Cc2ccccc2)NCCCC[C@H](c2ccco2)N1Cc1ccccc1 | -8%
COc1ccc(NC(=O)c2c(NC(=O)c3cccc(C)c3)sc3c2CCC3)cc1 | -18%
CCCCn1c(N)c(N(CCC(C)C)C(=O)c2cc(Cl)nc3ccccc23)c(=O)[nH]c1=O | 2%
Cc1cccc(NC(=O)c2sc3ncn(CC(=O)N4CCN(c5ccccn5)CC4)c(=O)c3c2C)c1 | -4%
COC(=O)C(CC(=O)O)NCc1ccco1 (centres undefined) | -13%
CCOC(=O)N1CCN(C2CC(=O)N(c3ccccc3)C2=O)CC1 (centres undefined) | -1%
O=C(NC1CCCCC1)c1cccc(S(=O)(=O)N2CCCCC2)c1 | -21%
O=C1c2ccccc2[C@@H]2C[C@@H](O)[C@H](Nc3cccc4ccccc34)CCN12 | 8%
Cc1ccc(N(C(=O)Cc2cccs2)C(C(=O)NCC2CCCO2)c2ccncc2)cc1 (centres undefined) | -2%
CN1CCN(c2ccc(C(CC(N)=O)NC(=O)Cc3cccc4ccccc34)cc2[N+](=O)[O-])CC1 (centres undefined) | -15%
COc1ccc(CNC(=O)c2cc3cc4cc(OC)ccc4nc3o2)cc1 | -4%
O=C(NN1CCOCC1)c1cc(-c2ccncc2)nc2ccccc12 | 1%
Cc1cccc(NC(=O)COC(=O)c2cccc(S(=O)(=O)N3CCCCCC3)c2)c1 | 11%
CCC(C)N1CCC2(CC1)N=c1c(c3c4c5c(C)c(O)c3c(O)c1=NC(=O)C(C)=CC=C[C@H](C)[C@H](O)[C@@H](C)[C@@H](O)[C@@H](C)[C@H](OC(C)=O)[C@H](C)[C@@H](OC)C=CO[C@@](C)(O5)C4=O)N2 (some centres undefined) | -2%
CC1CCCCC1NC(=O)COC(=O)c1ccc2c(c1)NC(=O)CS2 (centres undefined) | -9%
O=C(C1CCC1)N1CCN(S(=O)(=O)c2ccc([N+](=O)[O-])cc2)CC1 | 2%
Cc1ccc(NC(=O)c2ccc3c(c2)C(=O)N(CC2CCCO2)C3=O)cc1C (centres undefined) | 16%
O=C(c1ccc(OC2CCN(Cc3ccccn3)CC2)cc1)N1CCCCO1 | 4%
O=c1c(Br)c(Br)cnn1-c1ccccc1 | -1%
Further results.
SMILES | VDR inhibitor
CC(=O)N1CCCc2cc(S(=O)(=O)N(CC(C)C)CC(C)C)ccc21 | -13%
Cc1cccc(C(=O)Nc2ccc(C(=O)N/N=C/c3ccc4c(c3)OCO4)cc2)c1 | -2%
CCCOc1ccc(-c2nn(-c3ccccc3)cc2C2NC(=O)NC(C)=C2C(=O)OC(C)C)cc1 (centres undefined) | -5%
CC(C)CCNC(=O)c1cc(-c2ccc(Br)s2)nc2ccccc12 | 8%
Cc1nc(Cl)c(C#N)c2c1CCCC2 | 2%
CCOc1ccccc1N(CC(=O)NCCOC)C(=O)CCC(=O)Nc1ccccn1 | -6%
CCOc1ccc(NC(=O)c2ccc(F)cc2F)cc1 | -3%
CC(=O)OC1CCC23CC1(C)CCC2C(C)(C)CC3OC(C)=O (centres undefined) | -5%
CCCCCCSc1cccc(-c2nc3ccc(C)cn3c2NC2CCCCC2)c1 | -12%
N#Cc1c(NC(=O)CCCC(=O)O)sc2c1CCCCC2 | -5%
CCc1ccc(NC(=O)c2ccc3[nH]c(C)c(C)c3c2)cc1 | -4%
Cc1cc(C)c(C#N)c(SCC(=O)Nc2nonc2N)n1 | -7%

Ordered by the number under VDR inhibitor (low to high): some entries from above
SMILES | VDR inhibitor
CCOc1ccc(OCC(O)CNC2CCN(Cc3ccccc3)CC2)cc1 (centres undefined) | -2%
CC(=O)N1CCN(S(=O)(=O)c2cccc(C(=O)NC3CCCc4ccccc43)c2)CC1 (centres undefined) | 1%
Cc1nc(Cl)c(C#N)c2c1CCCC2 | 2%

Remaining list, next part.
SMILES | VDR inhibitor
CSc1nnnn1-c1cccc(O)c1 | 7%
Cc1ccccc1CS(=O)(=O)Cc1ccc(C(=O)NCCCN2CCCC2=O)o1 | 3%
O=C(NC1CCN(Cc2ccccc2)CC1)C1CCN(S(=O)(=O)c2ccccc2)CC1 | -8%
O=C1C(=O)N(Cc2cccnc2)C(c2cccc(Br)c2)/C1=C(/O)c1ccc2c(c1)OCO2 (centres undefined) | -16%
O=C(N/N=C/c1cccc(OC(=O)c2cccc(Br)c2)c1)c1ccncc1 | -5%
c1ccc(N2CC3COc4ccccc4C3=N2)cc1 (centres undefined) | -20%
c1ccc(-n2cnc3cc(NCc4ccncc4)ccc32)cc1 | 0%
Cc1cccc(Cn2nnc3c(=O)[nH]c(C4CCN(C(=O)c5ccc(F)cc5)CC4)nc32)c1 | 0%
COc1ccc(CCNC(=O)c2cc3n(n2)CCCN(Cc2ccc(C)cc2)C3=O)cc1OC | 11%
Cc1ccc2c(CN3CCN(S(=O)(=O)c4ccc(Cl)cc4)CC3)cc(=O)oc2c1C | -7%

Source: PubChem BioAssay (National Center for Advancing Translational Sciences (NCATS))
